Screens: PubChem, Fisher Drug Discovery Resource Center
NPYLR7 ag = mosquito NPYLR7 agonism; hit rate 0.15% among 270,000; activation, % at 10 µM; AID 1259423; HEK293T NPYLR7/Galpha15, GCaMP6s calcium fluorescence; in the data active = activation above about 40%;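 note: 0% = vehicle and 100% = reference agonist at the receptor; some compounds past the cut are filed as inactive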
NPYLR7 ag max-min = recorded beside NPYLR7 ag, whose call it bears; activation, %; measured here: Max-Min RFU normalised activation; some inactives read as strong as hits;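 span of the calcium signal over five minutes; 0% = vehicle and 100% = native peptide agonist; compound fluorescence can raise it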
Starred values were filed as active, the others as inactive; & = joins results of further samples. Not all compounds are listed; rates above refer to the full screens.

| mol | NPYLR7 ag | NPYLR7 ag max-min |
| --- | --- | --- |
| O=C(N/N=C\C1CC=CCC1)C(O)(c1ccccc1)c1ccccc1 (stereo not drawn) | -15 | -16 |
| CCn1nc(C)c(-c2nc(CC3CCN(C)CC3)no2)c1C | 1 | -3 |
| COc1ccc(OC)c(N(Cc2nnc3n2CCCCC3)C(=O)Nc2cccc(C)c2)c1 | 24 | 23 |
| CCS(=O)(=O)Nc1ccc(NC(=O)c2c(Cl)cccc2Cl)cc1C | 0 | 0 |
| COC(=O)c1c(NC(=O)c2cnn3c(C(F)(F)F)cc(-c4ccccc4)nc23)sc2c1CCCC2 | 8 | 9 |
| CCN(CC)C(=O)Oc1ccc2c(ccn2Cc2ccccc2F)c1NC(=O)C(F)(F)C(F)(F)C(F)(F)F | 1 | 7 |
| Cc1cccc(-c2cccc(NC(=O)C3CCCN(C(=O)Cc4nonc4C)C3)c2)c1 (stereo not drawn) | 5 | 3 |
| COCCN(CC(=O)N(CCc1c[nH]c2ccccc12)Cc1ccccc1OC)C(=O)Nc1ccc(C(F)(F)F)cc1 | -9 | -12 |
| Cc1ccc(C(=O)N2CCN(Cc3ccc(-c4noc(C5CCCC5)n4)cc3)CC2)c(Cl)n1 | -2 | -2 |
| COCC(=O)N1CCC(Oc2ccc(C(=O)N(C)Cc3cccs3)cc2)CC1 | 17 | 3 |
| CC(C)COCC(O)CNc1ccc(-n2nc(OCC(C)C)nc2-c2cccs2)cc1 (stereo not drawn) | 27 | 26 |
| Cn1c(=O)n(Cc2ccc(F)cc2)c(=O)c2c1nc1n2CCN1c1ccc(F)cc1 | 6 | 7 |
| CN(C1CCN(Cc2ccccn2)CC1)C1CCCN(CCc2ccccc2)C1 (stereo not drawn) | 8 | 9 |
| CO[C@H]1[C@H](NC(=O)Cc2cccs2)c2ccccc2C12CCN(Cc1cnc(SC)nc1)CC2 | -10 | -11 |
| N#Cc1c(NC(=O)CON=Cc2cccs2)sc2c1CCCCC2 | 4 | 2 |

Following part.
| mol | NPYLR7 ag | NPYLR7 ag max-min |
| --- | --- | --- |
| C=CCn1c(=O)c2c3c(sc2n2c(Nc4ccc(OC)cc4)nnc12)CCCC3 | -2 | 15 |
| CC(C)(C)c1ccc(S(=O)(=O)c2cc3cc(F)cc(F)c3oc2=O)cc1 | 10 | 14 |
| O=c1c2ccccc2nc(-c2ccc3ccccc3c2)n1Cc1ccc2c(c1)OCO2 | 5 | 1 |
| CCOc1ccccc1-n1c(=O)[nH]c2c(C(N)=O)nc(-c3cccs3)nc21 | 12 | 5 |
| OCC#Cc1csc(CN2CCC3(CCCN(Cc4ccc(F)cc4)C3)C2)c1 (stereo not drawn) | 1 | -1 |
| O=C(Cn1nnc(COc2ccccc2)n1)NC1CCCCCC1 | 2 | 1 |
| COc1cc(OC)cc(-c2nnc(SCC(=O)N3CCC(C)CC3)n2C2CCCCC2)c1 | -3 | 5 |
| Cc1ccc(C)c(Cn2c(CCNC(=O)CCC(C)O)nc3ccccc32)c1 (stereo not drawn) | -7 | -8 |
| Cc1ccc2n1CCn1cc(-c3ccccc3)cc1-2 | -9 | -18 |
| CC(=O)c1ccc(S(=O)(=O)N2CCN(C(=O)CN3C(=O)NC4(CCCCC4C)C3=O)CC2)cc1 (stereo not drawn) | -5 | -6 |
| O=C1CN(C(=O)Cc2cccs2)CC(O)CN1CCCc1ccccc1 (stereo not drawn) | -9 | -1 |
| Cc1ccc(C)c(C(C)NC(=O)c2ccccc2-n2cnnn2)c1 (stereo not drawn) | 5 | 3 |
| CC(c1ccccc1)N1CCN(c2cccc(CN(C)S(C)(=O)=O)c2)CC1 (stereo not drawn) | -1 | 12 |
| CCOC(=O)CN(C(C)=O)c1oc(C)c(C(=O)OCC)c1C#N | 5 | 2 |
| O=C(COc1ccc(F)cc1Cl)N(C1CC1)C1CCS(=O)(=O)C1 (stereo not drawn) | 7 | 5 |

Pulled by structure from the entries so far (six):
| mol | NPYLR7 ag | NPYLR7 ag max-min |
| --- | --- | --- |
| Cc1ccc(C)c(C(C)NC(=O)c2ccccc2-n2cnnn2)c1 (stereo not drawn) | 5 | 3 |
| C=CCn1c(=O)c2c3c(sc2n2c(Nc4ccc(OC)cc4)nnc12)CCCC3 | -2 | 15 |
| O=C(COc1ccc(F)cc1Cl)N(C1CC1)C1CCS(=O)(=O)C1 (stereo not drawn) | 7 | 5 |
| Cc1ccc(C)c(Cn2c(CCNC(=O)CCC(C)O)nc3ccccc32)c1 (stereo not drawn) | -7 | -8 |
| CC(C)(C)c1ccc(S(=O)(=O)c2cc3cc(F)cc(F)c3oc2=O)cc1 | 10 | 14 |
| COc1cc(OC)cc(-c2nnc(SCC(=O)N3CCC(C)CC3)n2C2CCCCC2)c1 | -3 | 5 |

Additional records follow:
| mol | NPYLR7 ag | NPYLR7 ag max-min |
| --- | --- | --- |
| Cc1ccccc1N1CCN(C2CCCN(CCCn3nnnc3C)C2)CC1 (stereo not drawn) | 4 | 0 |
| CSc1nnc(C)c(=O)n1COC(=O)COc1ccccc1 | 1 | -2 |
| O=C(CCc1cn2ccccc2n1)N[C@H]1CC[C@@H]2CCC[C@@H]21 | 0 | -3 |
| CCCCCNC(=O)C(C)(C)CC(=O)c1ccc(SC)cc1 | -16 | -16 |
| Cc1cc2nn(CC(=O)N3CCCC3)c(=O)n2c(Nc2ccc(C)c(F)c2)n1 | -11 | -13 |
| CC1(C)Cc2cc(S(=O)(=O)Nc3nnc(C(F)F)s3)ccc2O1 | -1 | 78 |
| Cc1onc(-c2ccccc2Cl)c1C(=O)Nc1ccc(-c2ccccc2)cc1[N+](=O)[O-] | -16 | -24 |
| Cc1cc(C)cc(-n2nc(C(=O)NCc3cccnc3)c(=O)n(Cc3cccc(Cl)c3)c2=O)c1 | 6 | 8 |
| COc1ccc(-c2nccc3[nH]nc(-c4ccccc4)c23)cc1OC | -1 | 1 |
| CN1CCC(Cc2noc(-c3ccccc3N3CCOCC3)n2)CC1 | 4 | 0 |
| CCN(Cc1noc(C)n1)C(=O)c1oc2cc(OC)ccc2c1C | 0 | 0 |
| CC(OC(=O)C1=COCCO1)C(=O)NC1CCCCC1 (stereo not drawn) | 3 | 8 |
| CN(C)c1cccc(C(O)c2nnc(N3CCOCC3)s2)c1 (stereo not drawn) | -3 | -2 |
| CC(=O)Nc1ccc2c(c1)sc(=NC(=O)c1ccc3ncsc3c1)n2C | 1 | 64 |
| O=C(N1C[C@@H]2[C@H](C1)[C@H]1CC[C@@H]2O1)C12CC3CC(C1)CC(n1cncn1)(C3)C2 | -5 | -5 |

Whole records, looked up by structure. Order of values: NPYLR7 ag | NPYLR7 ag max-min
Entry for CN1CCC(Cc2noc(-c3ccccc3N3CCOCC3)n2)CC1 = 4 | 0
Entry for O=C(N1C[C@@H]2[C@H](C1)[C@H]1CC[C@@H]2O1)C12CC3CC(C1)CC(n1cncn1)(C3)C2 = -5 | -5
Entry for CCCCCNC(=O)C(C)(C)CC(=O)c1ccc(SC)cc1 = -16 | -16
Entry for O=C(CCc1cn2ccccc2n1)N[C@H]1CC[C@@H]2CCC[C@@H]21 = 0 | -3
Entry for Cc1ccccc1N1CCN(C2CCCN(CCCn3nnnc3C)C2)CC1 (stereo not drawn) = 4 | 0

(continued)
| mol | NPYLR7 ag | NPYLR7 ag max-min |
| --- | --- | --- |
| COc1ccc(CC(=O)NCC2CCCN(C(=O)c3ocnc3C)C2)cc1 (stereo not drawn) | 11 | 3 |
| CC1(C)CC(c2cc(=O)n3[nH]c(-c4cccs4)cc3n2)CCO1 (stereo not drawn) | 13 | 13 |
| CCOC(=O)C(c1ccc(OC)c(OC)c1)C1C=CC(NC(=O)c2c(F)ccc(F)c2Cl)C1 (stereo not drawn) | 2 | 0 |
| NS(=O)(=O)CCCSCc1ccc(Cl)cc1 | 3 | -10 |
| CC(=O)Nc1ccc(NC(=O)Cn2c(-c3ccc([N+](=O)[O-])s3)nc3ccccc32)cc1 | 13 | 5 |
| CCn1nc(C)c(CCNC(=O)CC23CC4CC(CC(C4)C2)C3)c1C | 1 | -4 |
| Cc1cccc(S(=O)(=O)N2CCC(Cn3cc(CO)nn3)CC2)c1 | 2 | -1 |
| Cc1cccnc1CNS(=O)(=O)c1ccc(F)c(C#N)c1 | 10 | 4 |
| Cc1cccc(NC(=O)CCC2CCN(C(=O)Cn3cnnn3)CC2)c1 | 0 | -2 |
| COc1ccc(Cl)cc1N1CC(C(=O)NC2CCCCC2)CC1=O (stereo not drawn) | -2 | -4 |
| CCCC(Sc1nnc(NC(=O)c2cccc(Cl)c2)s1)C(=O)OCC (stereo not drawn) | 31 | 36 |
| CCC1SC(C)C/C(=N/O)C1C (stereo not drawn) | -3 | -9 |
| O=C(NC1CCC(NC(=O)[C@H]2CCCN2C(=O)c2ccc(Cl)cc2)CC1)c1ccccc1 (stereo partly drawn) | -1 | 6 |
| Cc1nc2c(C)cccn2c(=O)c1NC(=O)c1cccc([N+](=O)[O-])c1C | 5 | 4 |
| Cc1cc(C(=O)NC2CC(=O)N(Cc3ccccc3C(F)(F)F)C2)n[nH]1 (stereo not drawn) | 8 | 4 |

Additional records.
| mol | NPYLR7 ag | NPYLR7 ag max-min |
| --- | --- | --- |
| CCN(CC)Cc1cnc2c(C(=O)Nc3ccc4[nH]ncc4c3)cnn2c1 | 1 | -4 |
| CCCn1c(SCC(=O)Nc2c(C#N)c(C)c(C)n2Cc2ccco2)nnc1-c1ccncc1 | -1 | -5 |
| O=S(=O)(NCc1ccccc1)N1CCC(O)CC1 | 1 | 0 |
| OCCC1CCCN(c2cncc(Br)c2)C1 (stereo not drawn) | 1 | 0 |
| O=C(CCn1cnc2sc3c(c2c1=O)CCCC3)Nc1ccccc1 | 1 | 0 |
| CN(C)CCN(C)[C@H]1[C@H](O)C[C@@H]2C[C@H](c3ccccc3)OC[C@]21O | 3 | -1 |
| O=C(OCc1cc(-c2cc3ccccc3o2)on1)c1ccccc1S(=O)(=O)C(F)F | -2 | -3 |
| O=C(NC1CCSc2ccccc21)C1CC(=O)N(Cc2ccco2)C1 (stereo not drawn) | 5 | 2 |
| NC(=O)c1cc(NC(=O)COc2cc(Cl)cc(Cl)c2)cc(C(N)=O)c1 | -2 | -3 |
| Cc1nc2c(c(N(C)C)n1)CCN(C(=O)c1cc(CC(C)C)[nH]c(=O)n1)C2 | 3 | 1 |
| CS(=O)(=O)N1CCCC(C(=O)N(Cc2ccccc2)c2nc3c(F)cccc3s2)C1 (stereo not drawn) | 0 | 0 |
| COc1ccc2c(=O)c(-c3cscn3)c(C(F)(F)F)oc2c1 | 0 | -2 |
| COc1ccc(-c2cc(C(=O)Nc3ccccc3F)n3nc(C(C)(C)C)cc3n2)cc1 | -3&3 | -1&5 |
| CCC(C)NC(=O)c1ccc(CNC(=O)C2CCN(C(=O)C3CC3)CC2)cc1 (stereo not drawn) | 11 | 4 |
| CC(=O)NCCC(=O)Nc1ccc(Oc2ccc(C#N)cc2)c(Cl)c1 | 9 | 6 |

2 entries from above, set out differently.
> CCN(Cc1noc(C)n1)C(=O)c1oc2cc(OC)ccc2c1C
  NPYLR7 ag: 0 | NPYLR7 ag max-min: 0

> CC(OC(=O)C1=COCCO1)C(=O)NC1CCCCC1 (stereo not drawn)
  NPYLR7 ag: 3 | NPYLR7 ag max-min: 8

(further entries)
| mol | NPYLR7 ag | NPYLR7 ag max-min |
| --- | --- | --- |
| Cn1ccsc1=NC(=O)Cn1ccc(C(F)(F)F)n1 | 2 | -2 |
| O=C(CCNC(=O)c1ccccc1F)NCC1(c2ccccc2)CCOCC1 | 18 | 6 |
| O=C(Cn1c(-c2cccnc2)nc2ccccc21)N1CCCCCC1 | -9 | -12 |
| CC1CN(c2cc(Cl)nc(SCC(=O)N(CCN(C)C)Cc3ccccc3)n2)CCN1C(=O)c1ccc(Cl)cc1 (stereo not drawn) | 24 | 22 |
| O=C(Nc1cccc(-c2cscn2)c1)C1CCN(Cc2ccon2)CC1 | 0&-4 | 0&-6 |
| CSCCNC(=O)C1(C)CCN1C(=O)C1(c2ccccc2)CCCC1 (stereo not drawn) | 15 | 19 |
| COc1ccc(N2CCN(C3CCCN(C(=O)C4(O)CCCC4)C3)CC2)cc1 (stereo not drawn) | 7 | -2 |
| Cc1noc(Cl)c1CCC(=O)Nc1cc(C(C)(C)C)ccc1O | 9 | 5 |
| CN(Cc1ncc[nH]1)Cc1ccccc1-c1ccccc1 | 13 | 9 |
| CCC(C)(CC(=O)Nc1nccs1)Cc1nc2ccccc2s1 (stereo not drawn) | 4 | 4 |
| O=[N+]([O-])c1ccc(CSc2ncnc3c2nnn3Cc2ccc(Cl)cc2)cc1 | 2 | 10 |
| FC(F)(F)CCc1ccnc(N2CCN(Cc3ccncc3)CC2)n1 | -8 | -10 |
| O=C(NCC(F)(F)F)c1csc([C@@H]2O[C@H](CO)[C@H](O)[C@H](O)[C@H]2O)n1 | 1 | 0 |
| Cc1nc2c(OCCOc3ccccc3)cccn2c1N(C)CC1CC1 | 7 | -4 |
| O=C(NNS(=O)(=O)c1ccccc1Cl)c1cncn1-c1ccccc1 | 1 | 5 |
